# High-throughput results from PubChem.
# FGF22 binding – binders of human FGF22 protein, primary screen, FGF22 synaptogenesis inhibitor project, biophysical, thermal shift, single point | actives 1.5% (n = 340,000) | calls only at 9.99 µM | Fibroblast growth factor 22 (Homo sapiens), Q9HCT0 | AID 651658, 2012 | recombinant FGF22 thermal shift, SYPRO orange fluorescence; percent of sucrose octasulfate shift, DMSO zero;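 active = melting point raised past a set limit in the mean and every replicate; three in four hits are not shown here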
# Target sequence (Q9HCT0 whole entry, looked up): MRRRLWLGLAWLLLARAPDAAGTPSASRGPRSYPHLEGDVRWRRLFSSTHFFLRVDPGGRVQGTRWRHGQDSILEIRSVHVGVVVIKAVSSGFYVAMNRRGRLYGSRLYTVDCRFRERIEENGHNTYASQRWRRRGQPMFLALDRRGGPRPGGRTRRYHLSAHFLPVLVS
# rRNA inh HTS – reduced GFP signal of wild-type E. coli, primary screen, bacterial rRNA inhibitor project, GFP/RFP fluorescence, OD600, single point; E. coli WT GFP vs humanized-ribosome RFP mutants, 24 h; hits give low values; DMSO median 0, no signal -100; GFP signal change (wild-type ribosome), % (concentration not given with the values); actives 1.6% (n = 350,000); AID 720706, 2013;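 active = significant combined selectivity score with lowered wild-type GFP, culture density cut under 30%, mutant RFP and density less affected; inactive = any of these conditions unmet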; also: one replicate is shown; some compounds called inactive have numbers as strong as hits
# rRNA inh HTS OD600 – further read-out of rRNA inh HTS, marked with its call; OD600 change, %; measured here: OD600 growth;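 optical density of the mix in the first replicate; 0 = DMSO median and -100 = no signal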
# rRNA inh HTS RFP – recorded beside rRNA inh HTS, whose call it bears; RFP signal change, %; measured here: RFP humanized mutant strains;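 first replicate; 0 = DMSO median and -100 = no signal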
# Starred values were filed as active, the others as inactive; i = inactive; + = active, no number; & = joins results of further samples. These rows are one share of the data. The share of hits here may be higher or lower than overall.
SMILES,FGF22 binding,rRNA inh HTS,rRNA inh HTS OD600,rRNA inh HTS RFP
C[C@H](CO)N1C[C@H](C)[C@@H](CN(C)C(=O)Nc2ccccc2)Oc2cc(C#CC3(O)CCCC3)ccc2S1(=O)=O,i,-1,-13,0.4
CO[C@@H]1CN(C)C(=O)c2cc(NC(C)=O)ccc2OC[C@@H](C)N(C(=O)c2ccncc2)C[C@H]1C,i,1,-4,-0.9
C[C@H](CO)N1C[C@H](C)[C@@H](CN(C)C(=O)Nc2ccc(F)cc2)Oc2c(NS(=O)(=O)c3ccc(F)cc3)cccc2C1=O,i,3,21,-2.4
C[C@@H]1CCCCO[C@@H](CN(C)C(=O)C2CCCCC2)[C@@H](C)CN([C@@H](C)CO)C(=O)c2cc(NS(=O)(=O)c3ccc(F)cc3)ccc2O1,i,-1,-2,-2.2
COCC(=O)Nc1ccc2c(c1)C(=O)N(C)[C@@H]1CC[C@H](CC(=O)NCC(F)(F)F)O[C@@H]1CO2,i,-1,7,0.8
COc1ccc(NC(=O)N2CCCCN3[C@H](CO)[C@H](c4ccc(C#Cc5ccccn5)cc4)[C@@H]3C2)cc1,i,4,13,-1.4
C[C@@H]1CN([C@@H](C)CO)C(=O)c2cc(NS(=O)(=O)c3cccs3)ccc2O[C@@H](C)CCCCO[C@H]1CN(C)C(=O)c1ccccc1,i,3,-1,1.8
C[C@H](CO)N1C[C@H](C)[C@H](CN(C)C(=O)Cc2cccnc2)Oc2ncc(-c3ccccc3)cc2C1=O,i,-3,5,-2.9
C[C@@H]1CCCCO[C@H](CN(C)C(=O)C2CCCCC2)[C@H](C)CN([C@@H](C)CO)C(=O)c2cc(NC(=O)Nc3ccc(C(F)(F)F)cc3)ccc2O1,i,2,-1,-1.4
C[C@H](CO)N1C[C@H](C)[C@@H](CN(C)Cc2ccc(C(F)(F)F)cc2)Oc2c(NS(=O)(=O)c3ccc(Cl)cc3)cccc2C1=O,i,-3,-6,-0.1
COc1ccccc1NC(=O)N1CC[C@@H]2[C@H]1c1cc(-c3ccccc3)ccc1N(C)[C@@H]2CO,i,-8,9,9.7
CS(=O)(=O)N1CC(=O)N2[C@@H](CO)[C@H](c3ccc(Br)cc3)[C@@H]2C1,i,4,15,1.1
CO[C@H]1CN(C)C(=O)c2ccc(NS(C)(=O)=O)cc2OC[C@H](C)N(C(=O)C2CC2)C[C@@H]1C,i,0,3,1.9
C/C=C/c1ccc([C@H]2[C@@H](CO)N(Cc3ccccn3)[C@@H]2CNC(=O)CC)cc1,i,1,6,2.2
CN1CCN(C(=O)c2cc3c(c(-c4cccc(C5=CCCC5)c4)n2)[C@@H](CCO)N([S@](=O)C(C)(C)C)C3)CC1,i,1,5,3.9
C[C@@H]1CN([C@@H](C)CO)C(=O)c2cc(-c3ccncc3)cnc2O[C@@H]1CN(C)C(=O)c1ccccc1F,i,1,5,-0.6
O=C(C[C@H]1CC[C@H](NC(=O)Nc2ccc(F)cc2)[C@H](CO)O1)NCCN1CCCC1,i,3,3,1.0
C[C@@H]1CN([C@H](C)CO)C(=O)Cc2cc(NS(=O)(=O)c3cn(C)cn3)ccc2O[C@@H]1CN(C)Cc1ccc2c(c1)OCO2,i,1,1,-2.0
CNC[C@@H]1Oc2ccc(NS(=O)(=O)c3ccc(OC)cc3)cc2CC(=O)N([C@@H](C)CO)C[C@H]1C,i,6,15,0.9
C[C@H]1CN([C@@H](C)CO)C(=O)c2cc(C#Cc3cccc(F)c3)cnc2O[C@H]1CN(C)C(=O)C1CCCCC1,i,-1,-28,23
COCC(=O)N(C)C[C@@H]1Oc2cc(C#CC3CC3)ccc2S(=O)(=O)N([C@@H](C)CO)C[C@@H]1C,i,-2,-1,-2.8
CCNC(=O)C[C@@H]1CC[C@@H]2[C@@H](COc3ccc(NC(=O)Nc4ccc(C)cc4)cc3C(=O)N2C)O1,i,1,1,0.8
C[C@@H]1CN([C@H](C)CO)C(=O)Cc2cc(NC(=O)C3CCCCC3)ccc2O[C@@H]1CN(C)Cc1ccncc1,i,-5,-6,1.7
C/C=C/c1ccc(C2[C@H]3CNC[C@@H]2N3Cc2ccc3c(c2)OCO3)cc1 (stereo partly drawn),i,-3&2,0&-3,5.2&2.0
C[C@H](CO)N1C[C@H](C)[C@@H](CN(C)C(=O)NC2CCCCC2)Oc2c(NC(=O)c3ccc(-c4nccs4)cc3)cccc2C1=O,i,-3,-8,-1.0
CC=Cc1ccc2n(c1=O)C[C@@H]1[C@@H](CO)[C@H](C(=O)N3CCOCC3)N(Cc3ccccc3)[C@H]21 (mixture of isomers),i,1,0,-0.4
C[C@H](CO)N1C[C@H](C)[C@H](CN(C)S(C)(=O)=O)Oc2ncc(-c3cccc(F)c3)cc2C1=O,i,-2,1,-3.3
Cc1cccc(S(=O)(=O)N2CC[C@@H]3[C@H]2c2cc(-c4ccccc4F)ccc2N(C)[C@H]3CO)c1,i,3,6,2.1
CN(C)CC#Cc1ccc([C@H]2[C@@H](CO)N3C(=O)CN(C(=O)c4ccc(F)cc4)C[C@@H]23)cc1,i,4,11,1.0
Cc1noc(C)c1NC(=O)N(C)C[C@@H]1OCCCC[C@@H](C)Oc2ccc(NS(=O)(=O)c3cccs3)cc2C(=O)N([C@H](C)CO)C[C@H]1C,i,-1,0,-3.2
O=C(C[C@H]1CC[C@@H](NC(=O)C2CCC2)[C@H](CO)O1)NC1CCCCC1,i,-1,11,-0.1
C[C@@H]1CN([C@H](C)CO)C(=O)c2cc(NC(=O)Cc3cn(C)c4ccccc34)ccc2O[C@@H]1CN(C)CC1CC1,i,3,4,-0.4
C[C@@H]1CN([C@H](C)CO)C(=O)c2cc(NC(=O)CCC(F)(F)F)ccc2O[C@@H]1CN(C)S(=O)(=O)c1ccc(F)cc1,i,-1,-1,-0.6
CC(=O)N(C)C[C@@H]1Oc2cc(C#CC(C)(C)O)ccc2S(=O)(=O)N([C@H](C)CO)C[C@H]1C,i,6,7,-0.2
COc1ccc(C#Cc2ccc3c(c2)O[C@@H](CN(C)C(=O)CN2CCOCC2)[C@H](C)CN([C@@H](C)CO)S3(=O)=O)cc1,i,1,-6,6.4
N#Cc1cccc(-c2ccc3c(c2)[C@H]2[C@H](CCN2C(=O)C2CCCCC2)[C@H](CO)N3)c1,i,-5,-9,24
COCCNC(=O)C[C@H]1CC[C@@H]2[C@H](COC[C@H](O)CN2S(=O)(=O)c2ccccc2C)O1,i,3,4,-0.4
C[C@H]1CN([C@@H](C)CO)C(=O)c2cc(NC(=O)c3ccncc3)ccc2O[C@@H]1CN(C)Cc1ccc(Cl)c(Cl)c1,i,-2,-8,0.8
COCC(=O)N1CCC2(CC1)CN(Cc1ccc3c(c1)OCO3)[C@H](CO)c1c2c2ccc(OC)cc2n1C,i,2,3,0.5
C[C@@H]1CN([C@@H](C)CO)C(=O)c2cccc(NC(=O)c3ccncc3)c2O[C@H]1CN(C)S(=O)(=O)c1ccccc1,i,1,6,1.0
CC(=O)N1[C@H](CN(C(=O)c2cccc(F)c2)C(C)C)[C@H](c2ccccc2)[C@@H]1CO,i,0,1,-1.2
CNC[C@@H]1Oc2c(NC(=O)Nc3c(C)noc3C)cccc2C(=O)N([C@@H](C)CO)C[C@@H]1C,i,0,-2,-0.4
Cc1noc(C)c1NC(=O)NCC[C@H]1CC[C@H](NC(=O)Cc2cccnc2)[C@@H](CO)O1,i,2,4,-0.9
O=C(C[C@H]1C[C@H]2c3cc(NC(=O)c4ccc5c(c4)OCO5)ccc3O[C@H]2[C@H](CO)O1)NCCN1CCCCC1,i,-4,-7,0.7
O=C(Cc1ccccc1)N1C[C@@H]2[C@H](c3ccccc31)[C@H](CO)N2C(=O)C1CC1,i,0,15,2.5
CC(=O)c1ccc(-c2ccccc2C2=CC(=O)CC(C)(C)C2=O)cc1,i,-3,6,0.5
C[C@H](CO)N1C[C@H](C)[C@H](CN(C)Cc2ccc(C(=O)Nc3ccccc3N)cc2)Oc2ccc(NC(=O)NC3CCCCC3)cc2CC1=O,i,-2,-6,3.3
Cc1noc(C)c1S(=O)(=O)Nc1ccc2c(c1)C(=O)N([C@@H](C)CO)C[C@@H](C)[C@H](CN(C)S(=O)(=O)c1cccs1)OCCCC[C@H](C)O2,i,-1,9,-0.5
C/C=C/c1ccc([C@H]2[C@@H](CN(C)S(C)(=O)=O)N(C(=O)CC)[C@H]2CO)cc1,i,4,5,-3.4
COc1ccc(NC(=O)N2CCCCN3[C@H](C2)[C@@H](c2ccc(C#Cc4ccccn4)cc2)[C@@H]3CO)cc1,i,-9,6,4.1
COCC(=O)N1CC2(C1)[C@@H](c1ccccc1)[C@@H](CO)N2C(=O)NC1CCCC1,+,-3,3,-2.0
C[C@@H]1CN([C@@H](C)CO)C(=O)c2cc(-c3ccc(C#N)cc3)cnc2O[C@@H]1CN(C)C(=O)Nc1ccc(F)cc1,i,0,1,0.6
C[C@H]1CN(c2ccc(N3CCN(C(=O)OC(C)(C)C)C[C@@H]3C)cc2C#N)CCN1Cc1ccccc1,i,2,12,-2.5
O=C(CN1CCOCC1)NCC[C@H]1CC[C@@H](NC(=O)Nc2ccc(F)cc2)[C@H](CO)O1,i,5,6,-1.2
c1ccc(Nc2ccc(NCCc3c[nH]c4ccccc34)cc2)cc1,i,-24*,7.8*,4.1*
C[C@@H]1CN([C@H](C)CO)S(=O)(=O)c2ccc(C3=CCCC3)cc2O[C@@H]1CN(C)C(=O)c1ccncc1,i,2,5,-0.1
C/C=C/c1ccc2c(c1)O[C@H](CN(C)C(=O)COC)[C@@H](C)CN([C@@H](C)CO)S2(=O)=O,i,0,1,-3.2
CC=Cc1ccc2n(c1=O)C[C@@H]1[C@@H](CO)[C@H](C(=O)NCCC)N(Cc3cccnc3)[C@H]21 (mixture of isomers),i,2,4,-0.1
CCC(=O)Nc1ccc2c(c1)C(=O)N(C)C[C@@H](OC)[C@@H](C)CN(CCC(F)(F)F)[C@H](C)CO2,i,0,0,-0.7
O=C(C[C@@H]1CC[C@H]2[C@@H](COC[C@H](O)CN2Cc2cc(F)cc(F)c2)O1)Nc1nccs1,i,-4,-5,0.7

# Complete entries, quoted from the list.
# Profile of C/C=C/c1ccc([C@H]2[C@@H](CN(C)S(C)(=O)=O)N(C(=O)CC)[C@H]2CO)cc1 → FGF22 binding: i; rRNA inh HTS: 4; rRNA inh HTS OD600: 5; rRNA inh HTS RFP: -3.4
# Profile of C[C@H](CO)N1C[C@H](C)[C@H](CN(C)Cc2ccc(C(=O)Nc3ccccc3N)cc2)Oc2ccc(NC(=O)NC3CCCCC3)cc2CC1=O → FGF22 binding: i; rRNA inh HTS: -2; rRNA inh HTS OD600: -6; rRNA inh HTS RFP: 3.3

# Following part
SMILES,FGF22 binding,rRNA inh HTS,rRNA inh HTS OD600,rRNA inh HTS RFP
C[C@@H]1CN([C@@H](C)CO)C(=O)Cc2cc(NC(=O)Cc3cn(C)c4ccccc34)ccc2O[C@H]1CN(C)Cc1ccc(-c2ccccc2)cc1,i,3,11,2.4
C[C@@H]1CN([C@H](C)CO)S(=O)(=O)c2ccc(/C=C/c3ccccc3)cc2O[C@@H]1CN(C)Cc1ccccc1,i,-1,5,0.7
CC(=O)N(C)C[C@H]1Oc2cc(C#Cc3ccncc3)ccc2S(=O)(=O)N([C@@H](C)CO)C[C@H]1C,i,-1,6,-0.7
CCC(=O)N1CC2(CCN(C(=O)Cc3ccccc3)CC2)c2c(n(C)c3cc(OC)ccc23)[C@H]1CO,i,2,-1,-0.5
COc1ccc2c3c([nH]c2c1)[C@@H](CO)N(C(=O)C1CCCC1)CC31CN(S(C)(=O)=O)C1,i,-3,-2,0.1
CO[C@H]1CN(C)C(=O)c2cc(NC(=O)c3ccc(F)cc3)ccc2OC[C@H](C)N(C)C[C@H]1C,i,0,-5,0.5
C[C@H]1CN([C@@H](C)CO)C(=O)c2cc(C#Cc3ccccc3)cnc2O[C@H]1CN(C)C(=O)C1CC1,i,5,5,-2.9

# Entries shown so far that contain an aryl methoxy group:
SMILES,FGF22 binding,rRNA inh HTS,rRNA inh HTS OD600,rRNA inh HTS RFP
COc1ccc(NC(=O)N2CCCCN3[C@H](CO)[C@H](c4ccc(C#Cc5ccccn5)cc4)[C@@H]3C2)cc1,i,4,13,-1.4
COc1ccccc1NC(=O)N1CC[C@@H]2[C@H]1c1cc(-c3ccccc3)ccc1N(C)[C@@H]2CO,i,-8,9,9.7
CNC[C@@H]1Oc2ccc(NS(=O)(=O)c3ccc(OC)cc3)cc2CC(=O)N([C@@H](C)CO)C[C@H]1C,i,6,15,0.9
COc1ccc(C#Cc2ccc3c(c2)O[C@@H](CN(C)C(=O)CN2CCOCC2)[C@H](C)CN([C@@H](C)CO)S3(=O)=O)cc1,i,1,-6,6.4
COCC(=O)N1CCC2(CC1)CN(Cc1ccc3c(c1)OCO3)[C@H](CO)c1c2c2ccc(OC)cc2n1C,i,2,3,0.5
COc1ccc(NC(=O)N2CCCCN3[C@H](C2)[C@@H](c2ccc(C#Cc4ccccn4)cc2)[C@@H]3CO)cc1,i,-9,6,4.1
CCC(=O)N1CC2(CCN(C(=O)Cc3ccccc3)CC2)c2c(n(C)c3cc(OC)ccc23)[C@H]1CO,i,2,-1,-0.5
COc1ccc2c3c([nH]c2c1)[C@@H](CO)N(C(=O)C1CCCC1)CC31CN(S(C)(=O)=O)C1,i,-3,-2,0.1
